Bioassay records as filed in PubChem.
Biofilm kill mix = mixtures killing C. albicans biofilm; AID 1242; 120,000 compounds, 0.02% hits; C. albicans biofilm persisters + clotrimazole, fluorescence viability; primary screen in compound mixtures of four per well; inhibition, % at 7.6 µM;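 active = inhibition above 30.3% in the primary screen of four-compound pools, then above 30% when the compound was retested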;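 note: compounds exposed to preformed 24 h biofilms for 48 h; the number belongs to the whole pool; some results filed as inactive read as strong as hits; inactives centre near 12; 0% = biofilm with clotrimazole alone and 100% = kill control; retested singly at about 60 µM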
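Test system: C. albicans biofilms. Buffer or medium: RPMI/MOPS medium, pH 7.0. Timing: 48 h compound exposure at 37 °C. Technique: Alamar Blue fluorescence. Evaluation: percent inhibition of biofilm viability.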
An asterisk follows results filed as active; & = joins results of further samples.

Start of the data: the first 3 records, ahead of the listing:
canonical_smiles	Biofilm kill mix
COc1cccc(C(=O)C2CN(C)CC2c2ccc(Cl)cc2)c1 (stereo not given)	18
COc1ccc(C(=O)C2CCCN(Cc3cnc(C)s3)C2)c(OC)c1 (stereo not given)	-3
Cc1ccc(N2C(=O)NC(=O)/C(=C/C=C/c3ccco3)C2=O)cc1	19

All compounds of this part, previewed entries included:
canonical_smiles	Biofilm kill mix
COc1cccc(C(=O)C2CN(C)CC2c2ccc(Cl)cc2)c1 (stereo not given)	18
COc1ccc(C(=O)C2CCCN(Cc3cnc(C)s3)C2)c(OC)c1 (stereo not given)	-3
Cc1ccc(N2C(=O)NC(=O)/C(=C/C=C/c3ccco3)C2=O)cc1	19
CN(C)CC1CSCCC1(O)c1ccccc1Cl (stereo not given)	12
Cn1c(O)c(/C=N/N2CCOCC2)c(=O)n(-c2ccccc2)c1=S	18
O=c1[nH]c(=O)n(-c2ccccc2F)c(O)c1C=NCCC1=CCCCC1	15
Clc1ccc(N2CCNCC2)nn1	14
CN1CCN(/N=C/c2c(O)n(CCC3=CCCCC3)c(=S)[nH]c2=O)CC1	20
Cn1cc(C(=O)Cc2ccccc2)c2ccccc21	13
O=C(Nc1ccc(F)cc1)c1c(O)c2c(n(Cc3ccccc3)c1=O)CCCC2	9
CC(C)[C@H]1C(=O)N2CCC[C@H]2[C@]2(O)O[C@](NC(=O)[C@@H]3C=C4c5cccc6[nH]cc(c56)C[C@H]4N(C)C3)(C(C)C)C(=O)N12	14
COc1cc2c(cc1O)CC1c3c(cc(O)c(OC)c3-2)CCN1C (stereo not given)	27&15
Cc1cccc(OP(N)(=O)Oc2cccc(C)c2)c1	16
Cc1cc(C(=O)O)c(C)n1C1CC1	19
COc1ccc(N=Cc2c(O)n(Cc3ccccc3)c(=S)[nH]c2=O)c(OC)c1	19
C[C@H]1CCCC(=O)CCCCCc2cc(O)cc(O)c2C(=O)O1	12
Cc1nc2c(=O)n(C)c(=O)nc-2n(C)n1	25
Cn1c(O)c(C=NCCN2CCOCC2)c(=O)n(C)c1=S	-1
O=[N+]([O-])c1cc(-n2cnnn2)c(O)c([N+](=O)[O-])c1	30
O=C1/C(=C\c2cccnc2)N2CCC1CC2	8

A few values from the list:
C[C@H]1CCCC(=O)CCCCCc2cc(O)cc(O)c2C(=O)O1 in Biofilm kill mix is listed with 12
CN1CCN(/N=C/c2c(O)n(CCC3=CCCCC3)c(=S)[nH]c2=O)CC1 in Biofilm kill mix is listed with 20
COc1ccc(N=Cc2c(O)n(Cc3ccccc3)c(=S)[nH]c2=O)c(OC)c1 in Biofilm kill mix is listed with 19
COc1cc2c(cc1O)CC1c3c(cc(O)c(OC)c3-2)CCN1C (stereo not given) in Biofilm kill mix is listed with 27&15

Going on with the list.
canonical_smiles	Biofilm kill mix
Cc1cccc(NC(=O)OC2CN3CCC2CC3)c1 (stereo not given)	27
CC(C(=O)c1ccccc1)N1C(=O)c2ccccc2C1=O (stereo not given)	3
Cc1cc(/C=C2\C(=O)NC(=O)N(c3ccc(Cl)cc3)C2=O)c(C)n1C	6
CC(C)Oc1cccc(C(=O)C2CCCN(C3CCOCC3)C2)c1 (stereo not given)	23
CC(C)CCC1(CCc2ccncc2)C(=O)NC(=O)NC1=O	6
Cc1nn(Cc2ccccc2)c(C)c1C(=O)OCC(=O)NC1CCS(=O)(=O)C1 (stereo not given)	7
Cc1ccc(C(=O)N/C(=C\Cl)P(=O)(c2ccccc2)c2ccccc2)cc1	16
CCCCCn1c(=O)c(C(=O)Nc2nc3ccccc3[nH]2)c(O)c2ccccc21	11
Brc1ccccc1	7
Cc1cccc(N2C(=O)NC(=O)/C(=C\C=C\c3ccco3)C2=O)c1	14
Cn1c(O)c(C(=O)c2ccccc2Cl)c(=O)n(C)c1=O	7
NC(Cc1ccccc1)Cc1ccccc1	8
O=P(C(=Nc1ccc(Cl)cc1)N1CCOCC1)(N1CCOCC1)N1CCOCC1	8
O=C(c1ccc(Cl)cc1)C1CCCN(Cc2cccc3ncccc23)C1 (stereo not given)	-5
Cc1cc([N+](=O)[O-])c(Cl)cc1NC(=O)C(C)C	11
CC1CCCCN1C(=O)c1ccc(N2CC3CC(C2)c2cccc(=O)n2C3)c([N+](=O)[O-])c1 (stereo not given)	22
CCCCCn1c(=O)c(C(=O)Nc2ccccc2S(N)(=O)=O)c(O)c2ccccc21	4
CCOc1cc(C=C2C(=O)NC(=O)NC2=O)cc([N+](=O)[O-])c1O	5
CCCCN1C(=O)/C(=C/c2ccc(N3CCCCCC3)cc2)C(=O)NC1=S	21
O=C(O)c1cccc2c1NC(c1cccc([N+](=O)[O-])c1)C1CC(Sc3ccccc3[N+](=O)[O-])C(Cl)C21 (stereo not given)	7
Nc1cc(N2CCNCC2)ccc1[N+](=O)[O-]	9
C[C@]12CCC(=O)C(O)=C1CC[C@@H]1[C@@H]2CC[C@]2(C)C(=O)CC[C@@H]12	6
COc1ccc2[nH]cc(CCN=C(N)N)c2c1	20
O=C(CNC(=O)OCc1ccccc1)Nc1ccc(Br)cc1C(=O)c1ccccc1Cl	6
COc1cc(C[C@@H](C)N)c(OC)cc1I	15
Cc1cc(C(=O)CS(=O)c2ccc(F)cc2)cc(C)c1OC(=O)N(C)C (stereo not given)	10
c1ccc(CCNCc2ccccc2)cc1	15
Cc1ccc(CN2CCCC(C(=O)c3cccc(C(F)(F)F)c3)C2)o1 (stereo not given)	20
CCCCn1c(O)c(/C=C2/C=CC=N2)c(=O)[nH]c1=O	20
O=P(NS(=O)(=O)c1ccc(Cl)cc1)(Oc1ccccc1)Oc1ccccc1	9
COc1ccccc1CCNC1CCC(C)CC1 (stereo not given)	9
O=C(c1ccc(F)cc1)C(Cc1ccccc1)N1CCCCC1 (stereo not given)	13
C=C[C@@H]1C[C@@]1(C)[C@@H](NP(=O)(c1ccccc1)c1ccccc1)c1ccccc1	10
Cc1ccccc1N1C(=O)NC(=O)/C(=C\c2cnn(-c3ccccc3)c2)C1=O	20
CCCN(CCC)[C@@H]1CCc2cccc(O)c2C1	17
CNC(=O)Nc1ccc(C(O)(C(=O)OC)C(F)(F)F)cc1 (stereo not given)	22
N#CC(C#N)=C(N)c1cccnc1	-7
CN1CCN(c2ccc(S(=O)(=O)C(F)(F)F)cc2[N+](=O)[O-])CC1	13
O=c1c(/C=N/N2CCOCC2)c(O)n(-c2ccccc2)c(=S)n1-c1ccccc1	15
Fc1ccc(C(OCCN2CCCC2)c2ccc(F)cc2)cc1	2
CN1CCC2(CC1)NC(=O)c1ccccc1N2	12
O=C1NC(=O)N(c2ccc3c(c2)OCO3)C(=O)/C1=C/c1ccc(N2CCCC2)o1	13
Cc1nn(Cc2ccccc2)c(Cl)c1C(=O)O	9
NP(=O)(OCC(F)(F)F)Oc1ccc(Cl)cc1 (stereo not given)	19
COc1ccc(NC2=NC(C)(C)CS2)cc1	8
Cc1ccc(OCC(=O)N2CCN(Cc3ccc4c(c3)OCO4)CC2)cc1C	17
O=c1c(C=Nc2cccnc2Cl)c(O)n(CCCCl)c(=O)n1C1CCCCC1	25
C[C@]12CCC(=O)C=C1CC[C@@H]1[C@@H]2CC[C@]2(C)C(=O)CC[C@@H]12	8
CC(=O)N1N=C2C3CCN(CC3)C2C1c1cccc2ccccc12 (stereo not given)	3
CC(=O)Nc1cc(C(=O)N2CCC3(CC2)OCCO3)ccc1Sc1ccc(F)cc1	6
Clc1ccc2c(c1)C(c1ccccc1Cl)=NCc1nncn1-2	11
CCCc1c(C)nc(-c2ccc(C)cc2)nc1OC(=O)N(C)C	18
Cc1cccc(C)c1OP(N)(=O)Oc1c(C)cccc1C	24
CC1(C)C2([N+](=O)[O-])CNCC1([N+](=O)[O-])CNC2	5
COc1ccccc1-n1c(-c2cccs2)nc2ccccc2c1=O	-6
O=C1NC(=O)C(=Cc2coc3ccc(O)cc3c2=O)C(=O)N1	20
COc1cc2c(cc1OC)-c1c3c(cc4c1[C@@H](C2)N(C)CC4)OCO3	12
Cc1cccc(-n2c(/C=C/c3ccc([N+](=O)[O-])o3)nc3ccccc3c2=O)c1	-9
COc1ccccc1Cn1c(SCC(=O)C(C)(C)C)nc2cc(C(=O)N3CCC4(CC3)OCCO4)ccc2c1=O	15
COc1ccc(OCC#CCN2CCCCCC2)cc1	13

The listing continues:
canonical_smiles	Biofilm kill mix
CC(C)OC(=O)Nc1ccc(N=C(N)N[N+](=O)[O-])cc1	13
Cc1cc(N2CCCC2)ccc1C=C(C#N)C#N	15
CCCCOc1ccc(CCN)cc1Cl	-12
O=C(/C=C/c1ccc2c(c1)OCO2)c1c(O)n(CCc2ccccc2)c(=O)[nH]c1=O	1
CCn1c(O)c(C=Nc2cc(Cl)ccc2Cl)c(=O)n(CC)c1=O	21
C[C@H]1CC[C@H]2NCCN[C@H]2C1	0
O=C1NC(=O)N(c2ccccc2)C(=O)/C1=C\c1ccc([N+](=O)[O-])o1	23
Nc1ccc2nonc2c1[N+](=O)[O-]	9
Cc1ccccc1N1C(=O)NC(=O)/C(=C\c2ccc3c(c2)CCCN3Cc2ccccc2)C1=O	7
CCOC(=O)c1c(C)[nH]c(C(=O)C(C)N2CCCC2)c1C (stereo not given)	7
CC(=O)Nc1ccc(C(c2c(O)c3ccccc3oc2=O)c2c(C)n(C)n(-c3ccccc3)c2=O)cc1 (stereo not given)	9
CC12CC(c3ccccc3O1)C(C(=O)OCc1ccccc1)C(=O)N2 (stereo not given)	10
O=C1NC(=O)C(=Cc2ccc(-c3cc(Cl)ccc3[N+](=O)[O-])o2)C(=O)N1	7
CCOC(=O)c1cc(CC)sc1/N=C/C1C(=O)NC(=S)NC1=O	17
Nc1ccc2c(c1)Cc1ccccc1-2	16
Cc1c(CCN)ccc2c1[nH]c1ccccc12	25
Cc1ccccc1-n1c(O)c(/C=N/N2CCOCC2)c(=O)[nH]c1=S	-5
Cc1ccc(N2C(=O)NC(=O)/C(=C\c3ccsc3)C2=O)cc1C	17
CCOc1ccc(N=Cc2c(O)n(-c3ccc(C)c(C)c3)c(=O)[nH]c2=O)cc1	11
C=CCN=C(SCC(=O)c1ccc(Cl)cc1)c1c(O)n(C)c(=O)n(C)c1=O	12
O=C1CCCN1CC#CCN1CCCC1	22
Cc1nn(Cc2ccccc2)c(C)c1C=C1C(=O)NC(=O)NC1=O	7
CSc1ccc(C(=O)C2CCCN(C)C2)cc1 (stereo not given)	15
c1ccc(C2OCCN3CCCCC23)cc1 (stereo not given)	4
CNC(=O)Oc1ccc(-c2cn3cc(Cl)ccc3n2)cc1	8
Cc1nn(Cc2ccccc2)c(C)c1C(=O)NCc1ccccc1F	12
CCOP(=O)(OCC)/C(C#N)=C/c1ccoc1	20
COc1ccc(NC(=O)N2CCC3(CC2)OCCO3)c(OC)c1	6
C#CCN1CCN(c2ccc(F)cc2)CC1	10
CNCCc1ccccc1	-1
O=C(N/N=C/c1c(O)n(C2CC2)c(=S)[nH]c1=O)c1ccccc1O	14
Cc1cc(/C=C2/C(=O)NC(=O)N(C)C2=O)c(C)n1-c1ccccc1	14
Cc1cccc(OP(=O)(Nc2ccc(F)cc2)Oc2cccc(C)c2)c1	12
O=C(C(=O)N1CCC2(CC1)OCCO2)c1c[nH]c2ccccc12	26
Nc1ccccc1-[n+]1c(-c2ccccc2)cc(-c2ccccc2)cc1-c1ccccc1	-3
CN(C)c1ccc(-[n+]2c(-c3ccccc3)cc(-c3ccccc3)cc2-c2ccccc2)cc1	9
CCOP(=O)(OCC)C(NC(=O)NC)C(N)=O (stereo not given)	16
Cc1ccc(C2=CCNCC2)cc1	2
O=C(Cc1ccccc1)N1CCN(CC2CC3C=CC2C3)CC1 (stereo not given)	14
Clc1ccccc1C1NCc2ccccc2-n2cccc21 (stereo not given)	7
Cc1ccc(NC2=NCCCS2)c(C)c1C	7
Cc1cccc(NP(=O)(Oc2ccccc2F)Oc2ccccc2F)c1	20
COc1ccc(OCC(=O)N2CCN(Cc3ccc(SC)cc3)CC2)cc1	12
Clc1ccc2c(c1)C(OC1CN3CCC1CC3)c1ccccc1CS2 (stereo not given)	7
CCc1nc2ccc(N3CCN(C)CC3)cc2nc1CC	8
CCN(CC)c1ccc(N=Cc2c(O)n(-c3ccccc3)c(=O)[nH]c2=O)cc1	25
O=[N+]([O-])c1ccc(N2CCCNCC2)c2ncccc12	12
O=c1c2ccccc2[nH]c(=S)n1-c1cccnc1	1
Cc1ccccc1N1C(=O)NC(=O)/C(=C\c2cc(Br)c(N3CCOCC3)o2)C1=O	11
CC(C)N1CCN(Cc2ccc3c(c2)OCCO3)CC1CCO (stereo not given)	4
Brc1ccc2[nH]cc(/C=N/N3CCCCC3)c2c1	10
COC1CC(OC2CCC3(C)C(CCC4C3CCC3(C)C(C5=CC(=O)OC5)C(OC(C)=O)CC43O)C2)OC(C)C1OC1OC(COC2OC(CO)C(O)C(O)C2O)C(O)C(O)C1O (stereo not given)	15
O=C1NC(=O)C(=CN2CCc3ccccc32)C(=O)N1	20
CC(=NCC1CCCO1)c1c(O)n(C2CCCCC2)c(=O)[nH]c1=O (stereo not given)	20
CCCCCCN1CCN(c2ccccc2Cl)CC1	17
COC(=O)C(O)(c1ccc(N=Cc2ccccc2O)c(C)c1)C(F)(F)F (stereo not given)	14
Cc1cc(C=C2C(=O)NC(=O)NC2=O)c(C)n1-c1ccc2c(c1)OCO2	12
C/C(=N\Nc1ccccc1)c1c(O)n(C)c(=O)n(C)c1=O	14
CCCCNC(=O)NC(C(N)=O)P(=O)(OCC)OCC (stereo not given)	12

Only part of the results is shown (hit frequency here may not be typical).
